ID4 SMM – ID4 (human) binding; P47928; calls only; 31,000 compounds, 1.2% hits; small molecule microarray, Flag-ID4 binding, fluorescence F/B; AID 624137;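 active = spot signal over background at p below 0.07 in all four prints; compounds were printed on slides so no solution concentration is given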;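 also: a binder raises fluorescence above local background on the spot; about 2 pmol printed per array spot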
Target sequence (P47928 whole entry, looked up): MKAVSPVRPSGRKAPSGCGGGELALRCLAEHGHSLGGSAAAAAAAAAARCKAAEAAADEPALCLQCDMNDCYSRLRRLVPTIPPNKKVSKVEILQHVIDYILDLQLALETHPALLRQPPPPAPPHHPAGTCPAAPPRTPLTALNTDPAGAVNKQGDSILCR
Calls only; i = inactive.

canonical_smiles,ID4 SMM
CC(O)CNCCNc1ccc([N+](=O)[O-])c2cccnc12 (stereo unspecified),i
Cn1cc(C(=O)C(=O)N[C@H]2CN3CCC2CC3)c2ccccc21,i
COc1ccc([C@H]2Oc3c(I)c(OC)cc(OC)c3C[C@@H]2O)cc1OC,i
Fc1ccc(C(OCCN2CCN(CCCc3ccccc3)CC2)c2ccc(F)cc2)cc1,i
NNCc1cccc(O)c1,i
CCC1(CC)C(=O)C=CNC1=O,i
O=C(Cn1cc(C(=O)c2ccccc2)c2ccccc21)NCC1CCCO1 (stereo unspecified),i
COc1cc2occc2c2oc(=O)ccc12,i
COc1cc2ccc(=O)oc2c2ccoc12,i
CC(C)NCC(O)c1ccc(N)c(C#N)c1 (stereo unspecified),i
O=C(O)COc1ccc(Cl)cc1Cl,i
c1ccc(CCCN2CCN(CCOC(c3ccccc3)c3ccccc3)CC2)cc1,i
O=C(O)COc1cc(Cl)c(Cl)cc1Cl,i
CC(C)=CC1C(C(=O)OCc2cccc(Oc3ccccc3)c2)C1(C)C (stereo unspecified),i
O=C(CCCN1CCC2(CC1)C(=O)N(Cc1cccc(F)c1)CN2c1ccccc1)c1ccc(F)cc1,i
CCNc1nc(Cl)nc(NC(C)C)n1,i
C=C(C)C1Cc2c(ccc3c(=O)c4c(oc23)COc2cc(OC)c(OC)cc2-4)O1 (stereo unspecified),i
CC(C)(C)C(=O)c1cn(CC(=O)NCc2ccco2)c2ccccc12,i
CCCN1CCc2cccc3c2[C@H]1Cc1ccc(O)c(O)c1-3,i
O=[N+]([O-])c1ccccc1CNCCc1c[nH]c2ccccc12,i
C=C(C)c1cc2cc(C(C)=O)c(O)cc2o1,i
Cc1ncsc1CCCl,i
COc1cc2c(cc1O)CCNC2C (stereo unspecified),i
CN1C[C@H](CNC(=O)OCc2ccccc2)C[C@@H]2c3cccc4c3c(cn4C)C[C@H]21,i
C/C=C\C(C)=C\[C@H](C)C(=O)C[C@H](O)CC1CC(=O)NC(=O)C1,i

Random excerpt: 7 records from the list, in no set order.
canonical_smiles,ID4 SMM
CN1C[C@H](CNC(=O)OCc2ccccc2)C[C@@H]2c3cccc4c3c(cn4C)C[C@H]21,i
Cn1cc(C(=O)C(=O)N[C@H]2CN3CCC2CC3)c2ccccc21,i
c1ccc(CCCN2CCN(CCOC(c3ccccc3)c3ccccc3)CC2)cc1,i
CCNc1nc(Cl)nc(NC(C)C)n1,i
O=C(O)COc1ccc(Cl)cc1Cl,i
C/C=C\C(C)=C\[C@H](C)C(=O)C[C@H](O)CC1CC(=O)NC(=O)C1,i
Fc1ccc(C(OCCN2CCN(CCCc3ccccc3)CC2)c2ccc(F)cc2)cc1,i

(continued)
canonical_smiles,ID4 SMM
CNc1ccccc1C(=O)O,i
COc1ccc(CC2(CCc3ccncc3)C(=O)NC(=O)N(c3cccc(C)c3)C2=O)c(OC)c1 (stereo unspecified),i
CC(=O)OC1CN2CCC1CC2 (stereo unspecified),i
CC(C)N(CCC(C(N)=O)(c1ccccc1)c1ccccn1)C(C)C (stereo unspecified),i
CNC(=O)O/N=C/C(C)(C)SC,i
COc1ccccc1N1CCNCC1,i
CN1CCN(c2ccc3ccccc3n2)CC1,i
O=C(O)c1[nH]c2ccc(Cl)cc2c1CC(=O)N1CCC2(CC1)OCCO2,i
CC1(C)C2CC(=O)[C@]3(C)C(CC[C@@]4(C)[C@H](c5ccoc5)OC(=O)[C@H]5O[C@]543)[C@@]2(C)C(=O)C[C@H]1O (stereo partly specified),i
O=C1c2ccccc2C(=O)N1Cc1nc2ccccc2c(=O)n1-c1ccc(Br)cn1,i
O=C(Cn1cc(C(=O)c2ccccc2)c2ccccc21)Nc1ccc(F)cc1,i

Rewritten with each value named: entries from further up.
structure: CC(O)CNCCNc1ccc([N+](=O)[O-])c2cccnc12 (stereo unspecified)
  ID4 SMM: i

structure: Cn1cc(C(=O)C(=O)N[C@H]2CN3CCC2CC3)c2ccccc21
  ID4 SMM: i

structure: COc1ccc([C@H]2Oc3c(I)c(OC)cc(OC)c3C[C@@H]2O)cc1OC
  ID4 SMM: i

structure: Fc1ccc(C(OCCN2CCN(CCCc3ccccc3)CC2)c2ccc(F)cc2)cc1
  ID4 SMM: i

This is a subset; rates above refer to the full screens.
